DUX4 inh: blocks DUX4-driven transcriptional activation. 293T-iDUX4 ZSCAN4-Gaussia luciferase reporter, 24 h; hits give low values. activity change, negative = inhibition, % (test concentration not listed). hit rate 0.8% among 37,000. AID 1224904;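 active = -10% or lower and over 25 points stronger than a control reporter; inconclusive = -10% or lower with a smaller gap; inactive = above -10%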;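 note: 0% = median of neutral control wells and -100% = median of positive control wells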
DUX4 inh difference: second read-out of DUX4 inh, no call of its own (marks repeat the call); Gaussia minus Italica difference, %; measured here: selective DUX4 reporter inhibition;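 worked out from the two reporters; negative = selective loss of the DUX4 reporter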
DUX4 inh control: also measured in DUX4 inh; calls as there; activity change, negative = inhibition, %; measured here: Italica tet-on control reporter;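 0 = neutral control and -100 = positive control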
An asterisk follows results filed as active; ? = inconclusive; nt = no result given; & = joins results of further samples. The list is partial. The share of hits here may be higher or lower than overall.

| DUX4 inh difference | DUX4 inh | DUX4 inh control | structure |
| --- | --- | --- | --- |
| -5 | -5 | 0.3 | O=C(NC[C@H]1[C@@H](c2ccccc2)[C@@H](CO)N1C(=O)Cc1cccnc1)C1CCC1 |
| -3 | 1 | 4.3 | CC(C)NC(=O)N(C)C[C@H]1OCCCC[C@H](C)Oc2ccc(NS(C)(=O)=O)cc2C(=O)N([C@H](C)CO)C[C@@H]1C |
| -9 | -2 | 6.8 | COCC(=O)N1CCCCN2[C@H](CO)[C@@H](c3ccc(-c4ccc(OC)cc4)cc3)[C@@H]2C1 |
| -6 | -6 | -0.7 | COc1ccc(-c2cn(CC[C@H]3CC[C@@H](NC(=O)c4cnccn4)[C@H](CO)O3)nn2)cc1 |
| 1 | 8 | 7.1 | O=C(C[C@@H]1CC[C@H]2NC[C@@H](O)COC[C@@H]2O1)NCCc1ccncc1 |
| 1 | -1 | -2.3 | CCN(C[C@@H]1[C@@H](c2ccc(-c3cccnc3)cc2)[C@H](CO)N1C(C)=O)C(C)=O |
| 5 | 1 | -3.8 | CCCN1[C@@H]2c3ccc(-c4cccc(OC)c4)c(=O)n3C[C@@H]2[C@@H](CO)[C@@H]1C(=O)OC |
| -3 | -5 | -2.1 | COc1cccc(NC(=O)N(C)C[C@@H]2OCc3cnnn3CCCC(=O)N([C@@H](C)CO)C[C@H]2C)c1 |
| -1 | 0 | 1.5 | N#C[C@H]1[C@H](c2ccccc2-c2ccccc2F)[C@@H](CO)N1C(=O)C1CC1 |
| 19&10 | 16&14 | -3.2&3.4 | Cc1ccccc1-c1ccc(C2[C@H]3CNC[C@@H]2N3S(=O)(=O)c2ccccc2)cc1 (stereo partly drawn) |
| -3 | -2 | 1.1 | CN1C[C@H]2[C@@H](c3ccccc31)[C@@H](CO)N2C(=O)Nc1ccccc1 |
| 1 | 1 | 0.7 | C[C@H]1CN([C@@H](C)CO)S(=O)(=O)c2ccc(C3=CCCCC3)cc2O[C@@H]1CN(C)C(=O)Nc1ccc2c(c1)OCO2 |
| 7 | 5 | -2.1 | C[C@H](NC(=O)[C@@H]1[C@@H](CO)[C@@H]2Cn3c(ccc(-c4ccccc4F)c3=O)[C@H]1N2)c1ccccc1 |
| -8 | -2 | 6.0 | CCC(=O)N1C[C@H]2[C@@H](c3ccccc31)[C@@H](CO)N2CC1CCCC1 |
| 4 | 3 | -1.3 | CN(C)C(=O)C[C@@H]1C[C@H]2c3cc(NC(=O)Nc4ccc(F)cc4)ccc3O[C@H]2[C@@H](CO)O1 |
| -3 | -4 | -0.7 | CNC(=O)C[C@@H]1CC[C@@H]2[C@H](COc3ccc(NC(=O)c4cnccn4)cc3C(=O)N2C)O1 |
| -4 | -2 | 2.2 | CCN(C[C@@H]1[C@H](c2ccccc2)[C@H](CO)N1C(=O)COC)S(C)(=O)=O |
| -6 | -6 | -0.3 | Cc1cccc(-c2ccc([C@H]3[C@H]4CN(C(=O)NC(C)C)CCCCN4[C@H]3CO)cc2)c1 |
| nt | ? | nt | O=C(C[C@@H]1C[C@H]2c3cc(NS(=O)(=O)c4ccc(F)cc4)ccc3O[C@H]2[C@@H](CO)O1)N1CCc2ccccc2C1 |
| -2 | -2 | 0.0 | CCNC(=O)[C@H]1[C@H](CO)[C@H]2Cn3c(ccc(/C=C/c4ccccc4)c3=O)[C@@H]1N2CC |
| 0 | 1 | 0.9 | N#C[C@@H]1[C@H](c2ccc(-c3cccnc3)cc2)[C@@H](CO)N1C(=O)C1CC1 |
| 0 | -2 | -1.4 | C[C@H]1CN([C@@H](C)CO)C(=O)c2cc(-c3cccc(F)c3)cnc2O[C@H]1CN(C)Cc1ccccn1 |
| -3 | -2 | 0.6 | O=C(C[C@@H]1C[C@H]2c3cc(NC(=O)Nc4ccccc4F)ccc3O[C@H]2[C@@H](CO)O1)NCc1ccc2c(c1)OCO2 |
| 1 | -2 | -2.8 | O=C(c1ccc(F)cc1)N1CC(=O)N2[C@H](C1)[C@@H](c1ccc(C#CC3CCCCC3)cc1)[C@@H]2CO |
| -3 | 1 | 3.5 | C/C=C/c1ccc([C@@H]2[C@@H](CO)N(C(=O)c3cnccn3)C23CN(C(=O)C2CCC2)C3)cc1 |
| nt | ? | nt | C[C@@H]1CN([C@H](C)CO)C(=O)c2c(c3ccccc3n2C)-c2ccccc2CO[C@@H]1CN(C)Cc1ccc2c(c1)OCO2 |
| 7 | 8 | 0.7 | CC(C)NC(=O)Nc1ccc2c(c1)C(=O)N(C)[C@@H]1CC[C@H](CC(=O)NCC(F)(F)F)O[C@H]1CO2 |
| 2 | 0 | -1.8 | CC(C)CC#Cc1ccc2c(c1)O[C@@H](CN(C)C(=O)c1ccccc1F)[C@H](C)CN([C@H](C)CO)S2(=O)=O |
| -5 | -4 | 1.4 | C[C@H]1CN([C@@H](C)CO)C(=O)c2cccc(NC(=O)c3cnccn3)c2O[C@@H]1CN(C)S(=O)(=O)c1cn(C)cn1 |
| -4 | -6 | -2.0 | COc1ccc(NC(=O)N(C)C[C@H]2Oc3ccc(NC(=O)CCN4CCOCC4)cc3C(=O)N([C@H](C)CO)C[C@H]2C)cc1 |
| 2 | 0 | -2.7 | CCCC(=O)Nc1ccc2c(c1)C(=O)N(C)C[C@H](OC)[C@@H](C)CN(CCC(F)(F)F)[C@H](C)CO2 |
| 0 | -2 | -1.1 | C[C@H]1COCc2cnnn2CC[C@@H](Cc2ccccc2)C(=O)N1 |

Full records from above. Values in the order: DUX4 inh difference	DUX4 inh	DUX4 inh control
CC(C)CC#Cc1ccc2c(c1)O[C@@H](CN(C)C(=O)c1ccccc1F)[C@H](C)CN([C@H](C)CO)S2(=O)=O as listed: 2	0	-1.8
C/C=C/c1ccc([C@@H]2[C@@H](CO)N(C(=O)c3cnccn3)C23CN(C(=O)C2CCC2)C3)cc1 as listed: -3	1	3.5
C[C@H]1CN([C@@H](C)CO)C(=O)c2cccc(NC(=O)c3cnccn3)c2O[C@@H]1CN(C)S(=O)(=O)c1cn(C)cn1 as listed: -5	-4	1.4

Further entries
| DUX4 inh difference | DUX4 inh | DUX4 inh control | structure |
| --- | --- | --- | --- |
| -1 | 4 | 4.7 | O=C(C[C@H]1CC[C@H](NC(=O)Nc2cc(F)ccc2F)[C@H](CO)O1)NCc1ccncn1 |
| -7 | -5 | 2.4 | C[C@@H]1CN([C@H](C)CO)C(=O)CCCn2cc(nn2)CO[C@@H]1CN(C)C |
| -1 | -1 | 0.2 | C[C@H]1CN([C@@H](C)CO)C(=O)CCCn2cc(nn2)CO[C@@H]1CN(C)S(=O)(=O)c1cn(C)cn1 |
| 11 | 18 | 7.4 | Cn1cnc(S(=O)(=O)N2CC[C@@H]3[C@H](CO)Nc4ccc(-c5ccc(F)cc5)cc4[C@@H]32)c1 |
| nt | ? | nt | CCN1[C@@H]2Cn3c(ccc(/C=C/c4ccccc4)c3=O)[C@H]1[C@@H](C(=O)N1CCCCC1)[C@@H]2CO |
| -7 | 2 | 9.4 | CN(C)CC(=O)N1[C@@H]2c3ccc(-c4cccc(F)c4)c(=O)n3C[C@@H]2[C@@H](CO)[C@@H]1C(=O)NC1CCC1 |
| 3 | 6 | 2.9 | CC=Cc1ccc2n(c1=O)C[C@H]1[C@H](CO)[C@@H](C(=O)NCCc3cn(C)cn3)[C@@H]2N1C(=O)C1CC1 (mixture of isomers) |
| -3 | -4 | -1.0 | C[C@H](NC(=O)[C@H]1[C@H](CO)[C@H]2Cn3c(cccc3=O)[C@H]2N1C(=O)C1CC1)c1ccccc1 |
| 3 | 4 | 0.8 | CC(=O)N1[C@@H](CO)[C@H](c2ccccc2)[C@@H]1CN(CC(C)C)C(=O)c1ccccn1 |
| 1 | 2 | 0.9 | O=C(Nc1ccccc1)N1C[C@H]2[C@@H](c3ccccc31)[C@H](CO)N2Cc1ccccc1 |
| -30 | ? | 24 | O=C(NC1CCCCC1)N1C[C@@H]2N[C@H](C1)C2c1ccc(-c2ccc(F)cc2)cc1 (stereo partly drawn) |
| 4 | -5 | -9.0 | COc1ccc2c3c(n(C)c2c1)[C@@H](CO)N(C(=O)c1ccccn1)CC31CN(C(=O)Cc2ccccc2)C1 |
| 3 | 13 | 10 | CCCNC(=O)N1CC2(C1)CN(C(=O)NC1CCCC1)[C@H](CO)c1[nH]c3cc(OC)ccc3c12 |
| 3 | -1 | -4.2 | O=C1N[C@@H](Cc2ccccc2)COCc2cn(nn2)CC[C@H]1Cc1cccc(Cl)c1 |
| -3 | 17 | 20 | COc1ccc2c3c([nH]c2c1)[C@@H](CO)N(S(C)(=O)=O)CC31CN(C(=O)Nc2ccccc2)C1 |
| 0 | 2 | 1.5 | CO[C@@H]1CN(C)C(=O)c2ccc(NC(=O)Nc3ccc(Cl)cc3)cc2OC[C@@H](C)N(C(=O)Nc2c(C)noc2C)C[C@H]1C |
| 0 | 0 | -0.3 | CN(C)CCCNC(=O)C[C@H]1CC[C@@H]2[C@@H](COc3ccc(NC(=O)C4CCC4)cc3C(=O)N2C)O1 |
| 4 | 2 | -2.1 | C/C=C/c1ccc([C@H]2[C@@H](CO)N(C(=O)C3CCC3)C23CN(S(=O)(=O)CC)C3)cc1 |
| -5 | -1 | 4.3 | CCCNC(=O)N1[C@@H](C#N)[C@@H](c2ccccc2)[C@@H]1CO |
| nt | ? | nt | O=C(c1ccc2c(c1)OCO2)N1CC2(C1)[C@H](c1ccccc1)[C@H](CO)N2C(=O)C1CCC1 |
| -7 | -5 | 1.9 | CC[C@H]1C/C=C\C[C@H](C(C)C)NC(=O)CCC(=O)N1 |
| nt | ? | nt | CC=Cc1ccc2n(c1=O)C[C@@H]1[C@@H](CO)[C@H](C(=O)Nc3ccc(-c4ccccc4)cc3)[C@H]2N1C(=O)CC (mixture of isomers) |
| -6 | -7 | -0.9 | CNC(=O)C[C@@H]1CC[C@H]2[C@H](COc3ccc(NC(=O)Nc4ccccc4OC)cc3C(=O)N2C)O1 |
| 3 | 1 | -1.4 | CC(C)[C@@H]1COCc2cn(nn2)CCC[C@H](C)C(=O)N1 |

Reprinted at random: 5 entries already listed
| DUX4 inh difference | DUX4 inh | DUX4 inh control | structure |
| --- | --- | --- | --- |
| 0 | 0 | -0.3 | CN(C)CCCNC(=O)C[C@H]1CC[C@@H]2[C@@H](COc3ccc(NC(=O)C4CCC4)cc3C(=O)N2C)O1 |
| -5 | -1 | 4.3 | CCCNC(=O)N1[C@@H](C#N)[C@@H](c2ccccc2)[C@@H]1CO |
| 3 | 1 | -1.4 | CC(C)[C@@H]1COCc2cn(nn2)CCC[C@H](C)C(=O)N1 |
| 4 | 2 | -2.1 | C/C=C/c1ccc([C@H]2[C@@H](CO)N(C(=O)C3CCC3)C23CN(S(=O)(=O)CC)C3)cc1 |
| -6 | -7 | -0.9 | CNC(=O)C[C@@H]1CC[C@H]2[C@H](COc3ccc(NC(=O)Nc4ccccc4OC)cc3C(=O)N2C)O1 |

New compounds follow:
| DUX4 inh difference | DUX4 inh | DUX4 inh control | structure |
| --- | --- | --- | --- |
| -1 | -4 | -3.3 | C[C@H]1CN([C@@H](C)CO)C(=O)c2cc(NC(=O)Nc3ccc(C(F)(F)F)cc3)ccc2O[C@@H]1CN(C)Cc1ccc(C(=O)O)cc1 |
| -1 | 1 | 1.5 | O=C1NCCOCn2nncc2CC[C@@H]1Cc1ccc(-c2ccccc2)cc1 |
| 8 | 4 | -4.2 | C[C@@H]1CCCCO[C@H](CN(C)C(=O)Cc2ccccc2)[C@@H](C)CN([C@H](C)CO)C(=O)c2cc(NS(C)(=O)=O)ccc2O1 |
| -2 | -2 | -0.3 | C[C@H](CO)N1C[C@H](C)[C@H](CN(C)C(=O)CN2CCOCC2)Oc2ncc(C3=CCCCC3)cc2C1=O |
| 11 | 17 | 6.1 | CCC(=O)N1CC2(C1)[C@H](c1ccccc1)[C@@H](CO)N2C(=O)c1ccncc1 |
| 4 | -1 | -4.3 | O=C(C[C@H]1CC[C@@H](NC(=O)CN2CCOCC2)[C@@H](CO)O1)NCCc1ccncc1 |
| -4 | -2 | 1.8 | CCC(=O)N1[C@@H](CO)[C@@H](c2ccc(-c3cccc(F)c3)cc2)[C@@H]1CNC(C)=O |
| -11 | -8 | 2.2 | CO[C@H]1CN(C)C(=O)c2cc(NC(=O)NC3CCCCC3)ccc2OC[C@H](C)N(CC2CCOCC2)C[C@@H]1C |
| -2 | 2 | 4.1 | N#C[C@@H]1[C@@H](c2ccc(-c3ccncc3)cc2)[C@@H](CO)N1C(=O)C1CCCCC1 |
| nt | ? | nt | COc1ccc2c3c([nH]c2c1)[C@H](CO)N(Cc1ccccc1OC)CC31CN(S(C)(=O)=O)C1 |
| 28 | 30 | 1.7 | COC(=O)N(C)C[C@@H]1OCc2ccccc2-c2c(n(C)c3ccccc23)C(=O)N([C@@H](C)CO)C[C@H]1C |
| -3 | -2 | 1.5 | C[C@@H]1CN([C@H](C)CO)C(=O)Cc2cc(NC(=O)Cc3cn(C)c4ccccc34)ccc2O[C@@H]1CN(C)S(=O)(=O)c1cccs1 |
| -4 | 0 | 3.8 | COCC(=O)NC[C@H]1N[C@H](CO)[C@@H]1c1ccc(C#CC2CCCCC2)cc1 |
| -4 | 0 | 4.3 | CCCC(=O)Nc1ccc2c(c1)OC[C@H](C)N(CC1CCOCC1)C[C@@H](C)[C@H](OC)CN(C)C2=O |
| -3 | 1 | 4.2 | CN1C(=O)c2cc(NC(=O)c3cccc(F)c3)ccc2OC[C@@H]2O[C@H](CC(=O)NCc3ccccc3Cl)CC[C@H]21 |
| -5 | 4 | 9.4 | O=C(C[C@H]1CC[C@H]2[C@@H](COC[C@H](O)CN2C(=O)Nc2ccc(F)cc2)O1)NCCc1ccccc1 |
| -3 | -2 | 1.6 | CO[C@H](CN(C)S(=O)(=O)c1ccc(C)cc1)[C@H](C)CN(Cc1ccccc1Cl)[C@@H](C)CO |
| 0 | -5 | -5.5 | CO[C@@H]1CN(C)C(=O)c2cc(NC(=O)c3cnccn3)ccc2OC[C@@H](C)N(CCc2ccccc2)C[C@H]1C |
| -2 | 2 | 3.8 | CS(=O)(=O)N1CC2(C1)[C@@H](c1ccccc1)[C@@H](CO)N2CC1CC1 |
| -1 | -1 | -0.7 | CNC[C@H]1Oc2ccc(NC(=O)CCC(F)(F)F)cc2C(=O)N([C@H](C)CO)C[C@@H]1C |

Source: PubChem BioAssay
